Compound activity: PubChem BioAssay, National Center for Advancing Translational Sciences (NCATS)
D2 potentiator: human D2 receptor positive allosteric modulation; 0.23% of 360,000 active; P14416; AID 624464; potentiation, % (concentration not given with the values); DiscoveRx D2 beta-arrestin cells, luminescence, 90 min; 100% = 57 uM dopamine signal; active = potentiation of 50% or more; inconclusive = 30% to 50%; inactive = 30% or less;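 further: compound concentration not given in the record; tested on top of an EC20 dose of dopamine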
Target sequence (P14416 whole entry, looked up): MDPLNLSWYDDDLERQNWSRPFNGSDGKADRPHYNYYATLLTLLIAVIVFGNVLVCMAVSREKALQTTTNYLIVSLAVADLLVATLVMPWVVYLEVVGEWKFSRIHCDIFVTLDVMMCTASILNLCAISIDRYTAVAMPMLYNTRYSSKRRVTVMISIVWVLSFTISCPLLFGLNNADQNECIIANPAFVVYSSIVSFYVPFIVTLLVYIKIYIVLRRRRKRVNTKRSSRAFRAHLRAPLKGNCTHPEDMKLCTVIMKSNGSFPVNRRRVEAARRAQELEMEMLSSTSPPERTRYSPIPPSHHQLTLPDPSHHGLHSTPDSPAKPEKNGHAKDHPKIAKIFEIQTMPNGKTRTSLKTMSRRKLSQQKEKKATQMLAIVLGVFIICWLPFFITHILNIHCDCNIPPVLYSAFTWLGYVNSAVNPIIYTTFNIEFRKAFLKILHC
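PathHunter D2 cells, attached overnight at 37 deg C, received compound in DMSO plus dopamine at EC20 (50 nM final) for 90 min at 37 deg C. Beta-arrestin recruitment was read as luminescence after 1 h with detection reagent at ambient temperature.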
gsp agonist: activates gsp, the McCune-Albright syndrome mutation; gsp mutant cells, cAMP HTRF, 30 min; control for the full effect not named in the record; Potency, µM (series often up to 76.9 µM), for the others: top-dose activation (cAMP increase), most hits filed as activators; 0.13% of 340,000 active; active = well fitted activation curve with a large enough effect; inconclusive = small, poorly fitted or top-dose-only effect, or another doubt; inactive = no such curve, though single readings can be large or run the other way; cell line not stated here;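 further: phosphodiesterase inhibitor Ro 20-1724 added with compounds to block cAMP breakdown; potency means the concentration at half of the fitted maximal effect; nearly all actives have a fitted effect of over 60% in size; about a fifth of the inactives were tested at one dose only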
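Cells stably selected in G418 were plated at 2000/well, grown 16-24 hr, then given compounds in DMSO with the PDE inhibitor […] (300 uM solution added) for 30 min at 37C; cAMP was read by HTRF.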
gsp antag: antagonists of gsp mutant (McCune-Albright syndrome). AID 624288. 0.4% of 340,000 active. gsp-mutant cells, cAMP HTRF, 30 min; control for the full effect not named in the record. Potency, µM (doses to about 76.9 µM), without a hit: top-dose activity change, negative = inhibition, actives largely listed as inhibitors; active = falling curve of any shape with a large fitted effect; inconclusive = falling curve, mostly with a smaller effect; inactive = flat or rising curve; cell line not stated here;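 further: intracellular cAMP measured with PDE inhibitor Ro 20-1724 present during compound exposure; potency means the concentration at half of the fitted maximal effect; on the % scale 0 is the no-effect control and ±100 the full control effect; nearly all actives have a fitted effect of over 65% in size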
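HTRF cAMP measurement after 30 min RT detection following 30 min, 37C compound treatment alongside […] (added as 300 uM solution) in G418-selected cells seeded at 2000/well and grown 16–24 h.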
ClpP mod: qHTS Assay for Activators of ClpP. 1.9% of 340,000 active. purified B. subtilis ClpP, FRET peptide cleavage, 20 min. ATP-dependent Clp protease proteolytic subunit (Bacillus subtilis (strain 168)), P80244. Potency, µM (titrated, usually from 57.5 µM), for inactives: at the highest dose activity change, negative = active; active = well fitted falling curve with a large enough effect; inconclusive = small, poorly fitted or top-dose-only effect; inactive = no such curve, though single readings can be large or run the other way; further: potency means the concentration at half of the fitted maximal effect; the source files actives as falling curves though it sought activators and does not explain the sign; nearly all actives have a fitted effect of over 65% in size; many hits overshoot -100%
Target sequence (P80244 whole entry, looked up): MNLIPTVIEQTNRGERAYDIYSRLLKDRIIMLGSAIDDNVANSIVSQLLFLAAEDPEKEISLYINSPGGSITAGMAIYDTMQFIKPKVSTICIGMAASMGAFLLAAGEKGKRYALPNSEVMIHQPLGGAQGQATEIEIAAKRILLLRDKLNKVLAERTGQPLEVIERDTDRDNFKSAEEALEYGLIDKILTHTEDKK
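ClpP 10 microg/mL final, pH 8 Tris/KCl buffer with BSA, glycerol, Tween-20; compound pinned in; FRET-FV substrate; RT 20 min; Ex320/Em430; ΔFRET vs ADEP 5.8 microM, DMSO, no enzyme.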
Sfp PPTase inh: Sfp phosphopantetheinyl transferase inhibition; Q9F4F7; Biochemical Sfp PPTase activity, qHTS; Potency, µM, inactives show max response, negative = inhibition, most hits filed as inhibitors; 3.5% of 310,000 active; AID 1490; active means well fitted inhibition curve with a large enough effect; inconclusive means small, poorly fitted or top-dose-only effect, or another doubt; inactive means no such curve, though single readings can be large or run the other way;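 further: the enzyme is Sfp with the accession as filed and its product quenches rhodamine fluorescence; potency means the concentration at half of the fitted maximal effect; 0% = enzyme reaction without inhibitor and -100% = no enzyme wells; top concentration of the series not given in the record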
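Reaction rates are the 30-min fluorescence difference (ex 525, em 598 nm) in wells containing 15 nM Sfp, 5 uM rhodamine-CoA and 12.5 uM BHQ-2-YbbR at pH 7.6 with 10 mM MgCl2.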
TRPV1 PAM: potentiators of human vanilloid receptor 1 (TRPV1). potentiation, % at 8.33 µM. 0.02% of 320,000 active. TRPV1-expressing cells, Fluo-8 calcium influx, capsaicin EC20 potentiation; host cell line not named in the record; control for the full effect not named in the record. AID 540277. Q8NER1; active means potentiation above 80%; inconclusive means 30% to 80%; inactive means below 30%; further: 0% is about no effect
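Fluo-8 calcium influx in TRPV1-expressing cells, kinetic read (ex 480/em 520 nm). Compound added and read 3 min for agonist activity, followed by capsaicin at EC20 final and 2 min further read for enhancement.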
Menin MLL FP FL: menin-MLL binding inhibition, fluorescein peptide. Fluorescence polarization, fluorescein-MLL peptide displacement from menin. FP activity change, % at 61.4 µM. 290,000 tested, under 10 active; inconclusive = falling polarisation curve, or a change in total fluorescence; inactive = total fluorescence flat and polarisation flat or rising; no compound was filed as active; the % refers to the polarisation; negative = inhibition;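 further: % of control where 0% means no effect; inhibitors lower the polarisation; unlabelled MLL peptide was the positive control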
Numbers without * were called inactive; & = joins results of further samples; [ ] = dose if it differs, or a comment.

How did CCOC(=O)C1CCN(S(=O)(=O)C(F)(F)c2nc3ccccc3s2)CC1 do in these assays?
D2 potentiator: -9; gsp agonist: -40%[inhibitor]; gsp antag: inconclusive; ClpP mod: 0.3%; Sfp PPTase inh: -1%; TRPV1 PAM: -4; Menin MLL FP FL: 0.5

What do the screens show for `C=CCN(c1nc(C)cc(OC)n1)S(=O)(=O)c1ccc(C)cc1`?
D2 potentiator: 2; gsp agonist: -34%[inhibitor]; gsp antag: 3%; ClpP mod: -0.7%; Sfp PPTase inh: -6%; TRPV1 PAM: 2; Menin MLL FP FL: -3.2

What do the screens show for `COc1cccc(NC(=O)CN(C)C(=O)CNC(=O)c2ccc(C)s2)c1`?
D2 potentiator: 1; gsp agonist: -15%[15.4 µM]; gsp antag: 8%

Results for Cc1ccc(C(=O)n2nc(C#N)c(C#N)c2N)cc1 ?
D2 potentiator: -6; gsp agonist: 10%[15.4 µM]; gsp antag: 15%; ClpP mod: 0.1%; Sfp PPTase inh: 9%; TRPV1 PAM: -22; Menin MLL FP FL: 15

Results for COc1ccc(C(=O)NCCc2nnc3ccc(SCC(=O)NCc4ccc(F)cc4)nn23)cc1 ?
D2 potentiator: 7; gsp agonist: 36%; gsp antag: -1%; ClpP mod: -23%; Sfp PPTase inh: -12%; TRPV1 PAM: -14

Results for CCN1C(=S)N[C@@H](CCc2ccccc2)C(C(=O)OC)=C1C ?
D2 potentiator: -7; gsp antag: -8%; ClpP mod: 0.6%; Sfp PPTase inh: 1%&14%; TRPV1 PAM: 10&-4; Menin MLL FP FL: -0.5&4.9

Results for CCC1(c2ccccc2)NC(=O)N(CC(=O)NCc2ccc(OC)cc2)C1=O (stereo not given) ?
D2 potentiator: -1; gsp agonist: 22%[15.4 µM]; gsp antag: -23%; ClpP mod: -1.3%; Sfp PPTase inh: 20%; TRPV1 PAM: 0; Menin MLL FP FL: -0.5

How did Cc1ccc(NC(=O)c2ccc(N3CCCC3=O)cc2)cc1S(=O)(=O)N1CCCCC1 do in these assays?
D2 potentiator: 0; gsp agonist: -1%; gsp antag: 11%; ClpP mod: -2.6%; TRPV1 PAM: 6

What do the screens show for `NS(=O)(=O)c1ccc(CCNC(=O)CSc2nc3ccsc3c(=O)n2CC(=O)O)cc1`?
D2 potentiator: 8; gsp agonist: -13%; gsp antag: -2%; ClpP mod: 1.6%; Sfp PPTase inh: 3%; TRPV1 PAM: 8; Menin MLL FP FL: -1.1

What do the screens show for `CCOC(=O)C1(CCOc2ccccc2)CCN(Cc2ccc(CO)o2)CC1`?
D2 potentiator: -24; gsp agonist: 25%; gsp antag: 8%; Sfp PPTase inh: 11%; TRPV1 PAM: -7; Menin MLL FP FL: -3.9

Results for COC(=O)C(CC(=O)c1cccc(OC)c1)c1ccc(F)cc1 (stereo not given) ?
D2 potentiator: -1; gsp agonist: -15%; gsp antag: -4%; Sfp PPTase inh: 5%; TRPV1 PAM: -3; Menin MLL FP FL: -4.9

What do the screens show for `O=C(NCCCN=C1NS(=O)(=O)c2ccccc21)c1ccco1`?
D2 potentiator: -8; gsp agonist: -22%; gsp antag: 1%; ClpP mod: -1.1%; Sfp PPTase inh: -1%; TRPV1 PAM: -12; Menin MLL FP FL: -1.2

Results for Cc1cc(C)c(NC(=O)COc2nncc3ccccc23)c(C)c1 ?
D2 potentiator: 0; gsp agonist: -4%; gsp antag: 11%; ClpP mod: -0.3%; Sfp PPTase inh: 12%; TRPV1 PAM: 2; Menin MLL FP FL: 2.0

What do the screens show for `Cc1c(C#N)c(O)n(C)c(=O)c1N=Nc1ccc(S(N)(=O)=O)cc1`?
D2 potentiator: -5; gsp agonist: -19%; gsp antag: -9%; ClpP mod: 0.4%; Sfp PPTase inh: 8%; TRPV1 PAM: -2; Menin MLL FP FL: inconclusive

What do the screens show for `COc1c(C)cc(Br)cc1C(=O)O`?
D2 potentiator: -5; gsp agonist: -40%[inhibitor]; gsp antag: 6%; ClpP mod: -2.2%; Sfp PPTase inh: 9%; TRPV1 PAM: -9; Menin MLL FP FL: -2.3

Results for COc1ccc(CCNC(=O)CCCc2nnc3n(C)c(=O)c4sccc4n23)cc1OC ?
D2 potentiator: -9; gsp agonist: 8%[15.4 µM]; gsp antag: 19%; Sfp PPTase inh: 1%; TRPV1 PAM: -6; Menin MLL FP FL: -2.2

How did O=C(NCCC1=CCCCC1)c1ccc(Cl)c(S(=O)(=O)N2CCCCC2)c1 do in these assays?
D2 potentiator: -40; gsp agonist: -33%; gsp antag: -20%; ClpP mod: -4.7%; Sfp PPTase inh: 6%; TRPV1 PAM: -1; Menin MLL FP FL: 0.2

How did O=C(CCSCCc1ccccn1)Nc1c(F)c(F)c(F)c(F)c1F do in these assays?
D2 potentiator: 1; gsp agonist: 11%; gsp antag: 7%; ClpP mod: -0.8%; Sfp PPTase inh: -3%; TRPV1 PAM: 8; Menin MLL FP FL: 1.9

How did CCOC(=O)Cn1cnc2c(C#N)c3n(c2c1=O)CCCCC3 do in these assays?
D2 potentiator: -13; gsp agonist: inconclusive; gsp antag: 7%; ClpP mod: -3.6%; Sfp PPTase inh: 25%; TRPV1 PAM: -2; Menin MLL FP FL: 2.5

What do the screens show for `CCOC(=O)C1CCN(C(=O)CN(Cc2ccccc2)S(C)(=O)=O)CC1`?
D2 potentiator: 1; gsp agonist: -12%; gsp antag: 2%; ClpP mod: -11%; Sfp PPTase inh: 25%; TRPV1 PAM: 6; Menin MLL FP FL: 4.6

Results for O=C1[C@H](Cc2ccccc2)NCC=CC[C@H](c2ccc(Cl)cc2)N1Cc1ccc(Cl)cc1 ?
D2 potentiator: -11; gsp agonist: -10%; gsp antag: 2%; ClpP mod: -0.9%

How did O=C(OCC(=O)N1CCCC1=O)C1CCN(S(=O)(=O)c2c(Cl)cccc2Cl)CC1 do in these assays?
D2 potentiator: -12; gsp agonist: -12%[15.4 µM]; gsp antag: -6%; ClpP mod: -3.0%; Sfp PPTase inh: 4%; TRPV1 PAM: -13

What do the screens show for `Nc1sc2c([n+]1CCCS(=O)(=O)[O-])CCCC2`?
D2 potentiator: -6; gsp agonist: -98%[inhibitor]; gsp antag: -6%; ClpP mod: -0.7%; Sfp PPTase inh: 10%; TRPV1 PAM: 0; Menin MLL FP FL: 1.4

Results for Cc1ccc(CNS(=O)(=O)NCc2ccccc2F)cc1 ?
D2 potentiator: -2; gsp agonist: 4%; gsp antag: 7%; Sfp PPTase inh: 10%; TRPV1 PAM: -12; Menin MLL FP FL: -1.0

Results for O=C(CN(C(=O)CCC(=O)Nc1nccs1)c1cccc(F)c1)NCC1CCCO1 (stereo not given) ?
D2 potentiator: -20; gsp agonist: 7%; gsp antag: 4%[15.4 µM]; ClpP mod: -1.2%; Sfp PPTase inh: 7%; TRPV1 PAM: -7; Menin MLL FP FL: 3.5

What do the screens show for `COc1ccc(C2C(C(=O)C(C)(C)C)=C(O)C(=O)N2Cc2ccccc2)cc1` (stereo not given)?
D2 potentiator: 0; gsp agonist: inconclusive; gsp antag: -11%; ClpP mod: 0.2%; Sfp PPTase inh: 20%; TRPV1 PAM: 18; Menin MLL FP FL: 4.6

What do the screens show for `CN(Cc1ccccc1)C1CC(=O)N(c2ccc(C(=O)O)cc2)C1=O` (stereo not given)?
D2 potentiator: -7; gsp agonist: 10%; gsp antag: 1%; ClpP mod: 0.9%; Sfp PPTase inh: -23%; TRPV1 PAM: -13; Menin MLL FP FL: 1.4

Results for Cc1ccccc1S(=O)(=O)Cc1ccc(C(=O)NCCCN2CCCC(C)C2)o1 (stereo not given) ?
D2 potentiator: -8; gsp agonist: 20%; gsp antag: -18%; ClpP mod: -1.3%; Sfp PPTase inh: 11%; TRPV1 PAM: 3; Menin MLL FP FL: 1.3

How did COc1ccc(C2NC(=O)N(C)C(C)=C2[N+](=O)[O-])cc1 (stereo not given) do in these assays?
D2 potentiator: 8; gsp agonist: inconclusive; gsp antag: 5%; ClpP mod: -2.9%; Sfp PPTase inh: 3%; TRPV1 PAM: 0; Menin MLL FP FL: 3.2

Results for CCCCOc1ccccc1C(=O)NCCCCCC(=O)O ?
D2 potentiator: -4; gsp agonist: -29%; gsp antag: inconclusive; ClpP mod: -0.7%; Sfp PPTase inh: 8%; TRPV1 PAM: 6; Menin MLL FP FL: 2.1

What do the screens show for `CC1(c2nnc(Cc3ccccc3)o2)CC(c2cccc([N+](=O)[O-])c2)=NO1` (stereo not given)?
D2 potentiator: -5; gsp agonist: 5%; gsp antag: 3%; ClpP mod: -2.3%; TRPV1 PAM: 3

Results for Cc1cc(NC(=O)CN2CCCCCCC2)no1 ?
D2 potentiator: -3; gsp agonist: -5%; gsp antag: 2%; ClpP mod: -1.9%; Sfp PPTase inh: -20%; TRPV1 PAM: 12; Menin MLL FP FL: 0.3

Results for C#CCOCCOCCOCCNc1nc(N2CCN(C(=O)[C@H]([C@@H](C)O)n3cc(CCCCN)nn3)CC2)nc(N2CCN(C(=O)[C@H](CCCCN)n3cc(CCC(=O)O)nn3)CC2)n1 ?
D2 potentiator: -25; gsp antag: -1%; ClpP mod: 1.4%; TRPV1 PAM: -19

What do the screens show for `CCOc1ccccc1C(=O)Nc1ccc(S(=O)(=O)Nc2cc(OC)nc(OC)n2)cc1`?
D2 potentiator: -2; gsp agonist: 20µM*; gsp antag: 2%; ClpP mod: 1.2%; Sfp PPTase inh: 9%; TRPV1 PAM: 4

What do the screens show for `COc1cc(C(=O)Nc2cccc(C)c2C)ccc1OCC(=O)N1CCOCC1`?
D2 potentiator: -1; gsp agonist: inconclusive; gsp antag: 3%; ClpP mod: -0.9%; TRPV1 PAM: -7

What do the screens show for `CC(C)(C)OC(=O)N1CCCN(C(=O)Nc2ccccc2)CC1`?
D2 potentiator: -6; gsp agonist: 9%[15.4 µM]; gsp antag: -3%; Sfp PPTase inh: 22%; TRPV1 PAM: -24; Menin MLL FP FL: 5.2

How did Cc1ccc(CNC(=O)COC(=O)c2nc(-c3ccccc3)oc2C)cc1 do in these assays?
D2 potentiator: -3; gsp agonist: -25%; gsp antag: 18%; ClpP mod: -1.6%; TRPV1 PAM: 11

What do the screens show for `Cc1ccccc1Cn1c(C)cc(C)c(C#N)c1=O`?
D2 potentiator: -6; gsp agonist: 21%[15.4 µM]; gsp antag: -11%; ClpP mod: -1.2%; Sfp PPTase inh: 22%; TRPV1 PAM: -3; Menin MLL FP FL: 0.5
